Screening data (PubChem)
Mtb H37Rv: Confirmatory growth inhibition assay against Mycobacterium tuberculosis H37Rv, potency (AID 1949) | 1.6% of 100,000 active | most inactive calls were filed without a number and no value below 0 was filed | inhibition, % at 10 µg/mL; hits with a dose series show IC50 in µg/mL;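 active = confirmed in a dose series; inconclusive = about 50% or more but not retested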;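 note: bacteria grown 7 days with compound before Alamar blue readout; 0% = untreated bacteria and 100% = reference antibiotic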
* hit, by the source's call; i = inactive; ? = inconclusive. A portion of the library, so the mix of outcomes need not match the whole.

SMILES	Mtb H37Rv
CC1=CC(c2ccccc2)n2nc(N3C(=O)c4ccccc4C3=O)nc2N1 (centres undefined)	i
CCCc1cc(=O)[nH]c(SCC(=O)NC(=O)OCC)n1	i
COc1ccc(S(=O)(=O)N2CCC(C(=O)NCc3ccc(Cl)cc3Cl)CC2)cc1	3.9%
O=C(Nc1ccc(I)cc1)C1CCC(N2C(=O)C3C4C=CC(C5CC45)C3C2=O)CC1 (centres undefined)	i
CSc1cccc(NC(=O)CN(c2cccc(Cl)c2Cl)S(=O)(=O)c2ccccc2)c1	0.1%
O=C(Nc1ccc2c(c1)CCC2)c1ccc2c(c1)OCO2	17.6%
O=c1c2ccccc2nc(/C=C/c2cccnc2)n1-c1ccc(Cl)cc1	0.7%
CN(C)CCNC(=S)Nc1ccc(F)c(Cl)c1	i
O=C(NCCCN1CCOCC1)c1c(Cl)cccc1Cl	i
CCNS(=O)(=O)c1ccc(NC(=O)CCSc2ccccc2)cc1	i
COc1ccc(OC)c(NC(=S)Nc2ccc(OC)cc2OC)c1	i
O=C(Nc1ccccc1C(=O)Nc1ccccc1C(=O)NCc1ccco1)c1ccco1	i
O=C(Cc1cccc2ccccc12)NCCOCc1ccc(Cl)cc1	0.3%
Cc1sc2ncn(CC(=O)N3CCCC3)c(=O)c2c1-c1ccc(Br)cc1	0.7%
C=CCOc1ccc(CNCCO)cc1OCC	1.1%
CCOC(=O)c1c(NC(=S)NCc2ccccc2)sc2c1CC(C)CC2 (centres undefined)	i
Cc1ccc(CN2C(=O)c3ccccc3S2(=O)=O)c(C)c1	i
CCOc1ccc(NS(=O)(=O)Cc2ccc(Cl)cc2)cc1	i
CCOc1ccc(OCC(=O)Nc2nc(-c3ccc([N+](=O)[O-])cc3)cs2)cc1	i
Cc1ccc(OCCCN2CCOCC2)c(Br)c1	i
CC(C)(Oc1ccc(Cl)cc1)C(=O)NCc1ccccc1Cl	i
COc1ccc(C(=O)NC(=S)Nc2ccc(C(=O)O)c(Cl)c2)cc1OC	i
CC(NC(=O)C(=O)Nc1ccc(C(C)(C)C)cc1)c1ccccc1 (centres undefined)	i
CC(=O)Oc1ccc2c(=O)oc(-c3ccccc3C)nc2c1	19.6%
CCn1c2ccccc2c2cc(NS(=O)(=O)c3ccc(OC)cc3)ccc21	i
CC(=O)Nc1ccc(C(=O)CSc2nc3ccccc3n2Cc2ccccc2)cc1	i
CCc1cccc(NC(=O)c2c(-c3c(Cl)cccc3Cl)noc2C)c1	5.0%
C=CCc1ccccc1OCCN1CCN(C)CC1	i
CCc1c(C)sc(NC(=O)c2cnn3c2NC(c2ccco2)CC3C(F)(F)F)c1C#N (centres undefined)	i
CCN(c1ccccc1)S(=O)(=O)c1ccc(NC(=S)NC(C)=O)cc1	i
CS(=O)(=O)N(CC(=O)N1CCN(c2cccc(Cl)c2)CC1)c1cccc(F)c1	i
O=C(Nc1ccncc1)c1ccccc1-c1ccccc1	i
COC(=O)c1ccccc1N(C)S(C)(=O)=O	0.2%
COc1ccccc1NC(=O)c1c(NC(=O)c2ccc([N+](=O)[O-])cc2)sc2c1CCC2	i
C#CCn1c(Cc2ccc(OC)cc2)nc2ccccc21	i
CC(=O)Nc1ccc2nc(NC(=S)NC(=O)c3ccco3)sc2c1	i
COc1ccc(N2C(=O)CSC23CCCCC3)cc1	i
Cc1cccc(-c2nc3n(n2)C(=O)CC(c2cccs2)S3)c1 (centres undefined)	i
Cc1cc(NC(=O)CSc2n[nH]c(CC(C)C)n2)no1	i
O=C(O)c1ccc(S(=O)(=O)c2ccc3c(c2)C(=O)N(Cc2ccco2)C3=O)cc1	i
CCOC(=O)C(Oc1cc(C)cc2oc(=O)cc(-c3ccccc3)c12)c1ccccc1 (centres undefined)	i
CCOC(=O)c1c(C2CC2)csc1NC(C)=O	i
C=CCNC(=O)C1CCC(C(=O)NCC=C)CC1 (centres undefined)	i
CCc1ccc(-c2csc(N)n2)s1	i
OC(COc1ccc(I)cc1)Cn1c(C(F)(F)F)nc2ccccc21 (centres undefined)	?
COc1ccccc1NC(=O)CCSc1nc(C)cc(C)n1	i
COc1ccc(NC(=O)c2ccco2)cc1NC(=S)NC(=O)c1cccs1	i
COc1ccc(N2CCN(C(=O)c3ccc(SC)cc3OC)CC2)cc1	i
CC(C)Cn1c(NCCO)nc2ccccc21	0.9%
CN(C)c1ccc2c3c(ccc(N(C)C)c13)COC2	i
CSc1nc(C)c(Cc2ccccc2)c(=O)[nH]1	i
COc1ccc(Nc2ncnc3sc(C)c(C)c23)cc1OC	i
C=CCn1c(CNC(=O)c2ccc(OC)cc2)nnc1SCC(=O)Nc1ccc(Br)c(C)c1C	i
Cc1cccc(OCCCN2CCCCCC2)c1	i
CCN(CC)C(=O)/C(=C\c1ccc2c(c1)OCO2)NC(=O)c1ccc(Br)cc1	0.5%
CCOC(=O)c1cnc2c(C)cc(C)cc2c1NCCN(C)C	i
COc1cc(C=O)ccc1OCc1ccc(C(=O)O)o1	i
O=C(CC12CC3CC(CC(C3)C1)C2)Nc1ccc(NC(=O)c2cccc(Cl)c2)cc1	i
COc1ccc(CCNC(=O)c2ccc(-c3cccc(C(F)(F)F)c3)o2)cc1OC	i
Cc1ccc2nc(-c3cccc(NC(=O)c4ccco4)c3)[nH]c2c1	i
Carrying on:
SMILES	Mtb H37Rv
COC(=O)c1ccccc1NS(=O)(=O)c1ccc(Br)s1	i
Cc1nc(Nc2nc(CSc3ccc(Cl)cc3)cc(=O)[nH]2)nc2ccccc12	i
N#CCCN(CCC#N)C(=O)c1ccc(-c2ccccc2)cc1	i
Cc1cccc(NC(=O)CSc2nc(N)cc(=O)[nH]2)c1	i
Cc1nn2c3ccccc3n(CC(=O)c3ccccc3)c2nc1=O	i
O=C(Nc1ccc(Cl)cc1)N(Cc1ccc(F)cc1)C1CCS(=O)(=O)C1 (centres undefined)	3.6%
N#Cc1ccc(NC(=O)c2ccc(Cl)cc2[N+](=O)[O-])cc1	0.8%
COc1ccc(N(CC(=O)Nc2cccc(F)c2)S(=O)(=O)c2ccccc2)cc1	i
O=C(Cc1ccccc1)NN1C(=O)C2C(C1=O)C1C=CC2C12CC2 (centres undefined)	i
CC(C)Cc1ccc(S(=O)(=O)N2CCN(c3cccc(C(F)(F)F)c3)CC2)cc1	i
COc1ccc(OC)c(CNc2ccc(Br)cc2)c1	3.1%
COc1c(C(=O)NC(C)c2ccc(Br)cc2)ccc2ccccc12 (centres undefined)	4.5%
NC(=O)c1ccc(Cl)c(S(=O)(=O)N2CCCCC2)c1	i
COc1ccc(C(=O)N2CCN(c3ccccn3)CC2)cc1OC	i
CCOCCCn1c(=N)c(C(=O)OC)cc2c(=O)n3ccccc3nc21	0.9%
O=[N+]([O-])c1nn(-c2ccccc2)n(O)c1=NC1CCCC1	39.3µg/mL*
Cc1ccc(-c2csc3ncnc(SCC#N)c23)cc1	i
CCOc1cc(C(=O)NC(=S)Nc2ccc(N(CC)CC)cc2C)cc(OCC)c1OCC	i
Cc1nc2sccn2c1-c1csc(Nc2ccccc2)n1	?
Cc1cc(C(=O)Oc2ccc(C(=O)OCc3ccccc3)cc2)ccc1[N+](=O)[O-]	i
CCn1c(CNC(=O)c2cccc([N+](=O)[O-])c2)nnc1SCC(=O)Nc1nc(-c2ccccc2)c(C)s1	i
Cc1[nH]nc2c1C1(CCC3(CC1)OCCO3)C(C#N)=C(N)O2	i
CCCCOC(=O)CNc1nnc(SCC(=O)OCC)[nH]c1=O	0.5%
O=C(c1cc2c(ccc3ccccc32)oc1=O)N1CCN(CCO)CC1	i
O=C(NCc1cccnc1)C(F)(F)C(F)(F)C(F)(F)F	i
CCC(C)N1CCN(C(=O)c2ccc(OC)cc2)CC1 (centres undefined)	i
c1ccc(Oc2cccc(CN3CCC(N4CCCCCC4)CC3)c2)cc1	i
C#CCOc1c(Cl)cc(CO)cc1Cl	i
Cc1ccc(CSCCNS(=O)(=O)c2ccc(Br)cc2)cc1	i
Cc1cc(C)c(NC(=O)CSc2nc(-c3ccccc3)c(C#N)c(=O)[nH]2)c(C)c1	i
CCOC(=O)C1=C(C)N=c2s/c(=C/c3ccc(OC)cc3)c(=O)n2C1c1sccc1C (centres undefined)	i
CCC1CCCCN1S(=O)(=O)c1ccc(NC(=O)COc2ccc(Br)cc2)cc1 (centres undefined)	i
c1cnc2cc(Oc3ccc4nccnc4c3)ccc2n1	3.1%
CC(C)C1C2=C(CCCC2=O)c2onc(N)c21 (centres undefined)	2.4%
Nc1ncnc2nc(Sc3ccc(Cl)cc3)[nH]c12	i
Cc1cc(Br)cc(C)c1Nc1ncnc(N)c1[N+](=O)[O-]	2.1%
Cc1cc(C)c(S(=O)(=O)NCc2ccccc2)cc1C	4.2%
Cc1occc1C(=O)NCc1cccc(CNC(=O)c2ccoc2C)c1	i
Clc1ccc(SCCCn2ccnc2)cc1	2.36µg/mL*
CCOc1ccc(C(=O)NCc2cccc(CNC(=O)c3ccc(OCC)cc3)c2)cc1	i
CCOc1ccccc1C(=S)N1CCN(c2ccc(F)cc2)CC1	i
O=c1c2ccccc2c(-c2ccccc2)nn1-c1ccccc1	6.5%
CCCCc1ccc(-n2c(-c3cc(OC)c(OC)c(OC)c3)n[nH]c2=S)cc1	i
COc1ccc(NC(=O)COc2ccccc2Br)cc1	i
O=C1c2ccccc2C(=O)N1CCCSc1nnc(-c2ccncc2)n1-c1ccccc1	i
COC(=O)Nc1nnc(CSCc2cccc(Br)c2)s1	0.3%
CC(=O)Oc1ccc2c(=O)c(-c3nc4ccccc4s3)c(C(F)(F)F)oc2c1C	i
COC(=O)c1c(NC(=O)c2c(F)cccc2F)sc(C)c1C	i
Cc1ccc(S(=O)(=O)N2CCN(c3cc(Cl)ccc3Cl)CC2)cc1	2.6%
CCOC(=O)C(Cc1cc(C(C)=O)ccc1OCC)C(=O)OCC	i
CCc1c(C)sc(NC(C)=O)c1C(N)=O	i
Cc1cc(C(=O)NCc2ccccn2)ccc1[N+](=O)[O-]	i
O=C(Nc1sc2c(c1C(=O)NCc1ccco1)CCCC2)c1ccc(F)cc1	i
CCN1C(=O)CC(N2CCC(Nc3ccc(F)cc3)CC2)C1=O (centres undefined)	i
CCC(c1ccccc1)c1nc(-c2ccc(Cl)cc2)no1 (centres undefined)	i
N#C/C(=C\c1ccc(OCC(=O)N2CCOCC2)cc1)c1nc2ccccc2[nH]1	i
CNc1cc(N2CCN(S(=O)(=O)c3ccc(Cl)c(Cl)c3)CC2)ccc1[N+](=O)[O-]	i
Cc1nc(NC(=O)COc2ccc(Cl)cc2)sc1C(=O)N(C)C	4.3%
Cc1cc(C)nc(Sc2ccc(S(C)(=O)=O)cc2[N+](=O)[O-])n1	i
COc1ccccc1-n1nnnc1SCC(=O)Nc1ccccc1SC	1.0%
(listing goes on)
SMILES	Mtb H37Rv
O=c1c2ccccc2nc(/C=C/c2cccc([N+](=O)[O-])c2)n1CCCO	i
CCOc1ccccc1N(CC(=O)Nc1ccc(Cl)c(Cl)c1)S(C)(=O)=O	i
COc1ccc(NC(=O)CSc2nnc(CSCc3ccc(Cl)cc3)n2C)cc1	i
CCC(=O)c1ccc(N2CCN(C(=O)Cc3ccccc3)CC2)c(F)c1	i
CC(NC(=O)c1ccc(-c2ccccc2)cc1)C1CCCO1 (centres undefined)	0.2%
CCOc1ccc(N(CC(N)=O)S(=O)(=O)c2ccc(OC)c(OC)c2)cc1	i
O=C(c1ccccc1)c1ccc2nc(-c3cccc(NC(=O)C4CCCO4)c3)[nH]c2c1 (centres undefined)	i
CCOC(=O)CSc1nc2ccccc2n2cnnc12	14.3%
O=C(Nc1ccccc1Sc1ccccc1)c1ccc(Cl)cc1Cl	0.6%
O=C(c1cc2n(n1)C(C(F)(F)F)CC(c1ccc(Cl)c(Cl)c1)N2)N1CCCC1 (centres undefined)	i
CC1CCc2c(sc3nc(-c4ccc(N(C)C)c(Br)c4)[nH]c(=O)c23)C1 (centres undefined)	i
NS(=O)(=O)c1ccc(NS(=O)(=O)c2ccc(NC(=O)CCc3ccccc3)cc2)cc1	i
CCC(=O)c1ccc(OCc2ccc(Cl)cc2)cc1	4.6%
CNC(=O)c1c(NC(=O)c2cccc(C)c2)sc2c1CCC2	30.9%
Cc1cc(N)cc(-c2nc3ccccc3s2)c1O	7.4%
CC(=O)C(C)Oc1cc(C)cc2oc(=O)c3c(c12)CCCC3 (centres undefined)	i
COc1ccc(OC)c(C2C(C(=O)c3ccco3)=C(O)C(=O)N2Cc2cccnc2)c1 (centres undefined)	i
Cc1ccc(NC(=O)C(C)Oc2cccc(Cl)c2)c([N+](=O)[O-])c1 (centres undefined)	i
Cc1cc(C(=O)NCCCN2CCCC2=O)cs1	1.2%

Gathered by group, the compounds so far containing a thiophene ring, fused or not.
SMILES	Mtb H37Rv
Cc1sc2ncn(CC(=O)N3CCCC3)c(=O)c2c1-c1ccc(Br)cc1	0.7%
CCOC(=O)c1c(NC(=S)NCc2ccccc2)sc2c1CC(C)CC2 (centres undefined)	i
CCc1c(C)sc(NC(=O)c2cnn3c2NC(c2ccco2)CC3C(F)(F)F)c1C#N (centres undefined)	i
COc1ccccc1NC(=O)c1c(NC(=O)c2ccc([N+](=O)[O-])cc2)sc2c1CCC2	i
Cc1cccc(-c2nc3n(n2)C(=O)CC(c2cccs2)S3)c1 (centres undefined)	i
CCOC(=O)c1c(C2CC2)csc1NC(C)=O	i
CCc1ccc(-c2csc(N)n2)s1	i
COc1ccc(NC(=O)c2ccco2)cc1NC(=S)NC(=O)c1cccs1	i
COc1ccc(Nc2ncnc3sc(C)c(C)c23)cc1OC	i
COC(=O)c1ccccc1NS(=O)(=O)c1ccc(Br)s1	i
Cc1ccc(-c2csc3ncnc(SCC#N)c23)cc1	i
CCOC(=O)C1=C(C)N=c2s/c(=C/c3ccc(OC)cc3)c(=O)n2C1c1sccc1C (centres undefined)	i
COC(=O)c1c(NC(=O)c2c(F)cccc2F)sc(C)c1C	i
CCc1c(C)sc(NC(C)=O)c1C(N)=O	i
O=C(Nc1sc2c(c1C(=O)NCc1ccco1)CCCC2)c1ccc(F)cc1	i
CC1CCc2c(sc3nc(-c4ccc(N(C)C)c(Br)c4)[nH]c(=O)c23)C1 (centres undefined)	i
CNC(=O)c1c(NC(=O)c2cccc(C)c2)sc2c1CCC2	30.9%
Cc1cc(C(=O)NCCCN2CCCC2=O)cs1	1.2%
